Proteasome disasm: blocks ATP-dependent breakdown of the yeast 26S proteasome; anti-FLAG beads, GFP-proteasome disassembly, flow cytometry; inhibition of disassembly, % (concentration not given with the values); actives 0.2% (n = 24,000); AID 751;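 active = above 40%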;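 also: plate controls were ATP control with full disassembly for no effect and ATP-gamma-S intact proteasomes for full effect; higher percent means more bead fluorescence retained so stronger block of disassembly; stock transfer was 100 nL into about 10 µL; wells with too few beads may also be inconclusive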
VCAM-1 rise: boosters of cytokine-driven VCAM-1 levels – cell-based, plate reader, pooled HUVEC, TNFa stimulus (AID 455); actives 0.2% (n = 10,000); HUVEC TNFa-induced VCAM-1 immunofluorescence, plate reader; numbers were filed only for top-ranked candidate wells; augmentation, % at 5 µM;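 active = a compound raising TNF-alpha-driven VCAM-1 surface staining, with its hit status upheld on visual or statistical review; inactive = the rest, including hits rejected on review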;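 also: 0% = TNFa with vehicle and 100% = strongest image-checked hit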
Starred values were filed as active, the others as inactive; i = inactive; . = not tested or not shown.

no.	SMILES	Proteasome disasm	VCAM-1 rise
1	CCNc1nc(OC)nc(Oc2ccc(=O)n(-c3ccccc3)n2)n1	0.6	i
2	CCS(=O)(=O)N1CCC(C(=O)NCc2cccc(OC)c2)CC1	-2.4	.
3	COc1ccc(OC)c(NC(=O)C23CCC(C)(C(=O)C2)C3(C)C)c1 (stereo not given)	-0.1	i
4	CC(C)C[C@H](NC(=O)[C@@H]1O[C@H]1C(=O)O)C(=O)NCCCCN=C(N)N	0.1	i
5	Cc1nc2sc(C(c3cccc(F)c3)N3CCCC(C)C3)c(O)n2n1 (stereo not given)	-0.8	.
6	CC(C)c1cc(CN2CCN(CCC#N)CC2)cc(C(C)C)c1O	1.3	.
7	Cc1c(C(=O)N2CCOCC2)sc2nc(-c3ccccc3)cn12	0.6	.
8	COc1ccc(C(=O)Nc2c3c(nn2-c2cccc(Cl)c2)CS(=O)C3)cc1 (stereo not given)	2.5	.
9	CCOC(=O)c1cc(-c2ccco2)nc2c1c(C)nn2CCC#N	0.1	i
10	C1=CC2CC1CC2CN1CCN(c2ccccc2)CC1 (stereo not given)	2.5	i
11	O=C(c1cccc(C(=O)N2CCN(c3ccccc3)CC2)c1)N1CCN(c2ccccc2)CC1	-0.5	i
12	CCn1c(N2CCC(C)CC2)nc2c1c(=O)n(C)c(=O)n2C	-1.3	.
13	Cc1cccc(C2N(c3ccc(F)cc3)C(=O)C3CCCN32)c1 (stereo not given)	61*	.
14	CCc1ccc(Nc2cc(=O)n(C3CCCCC3)c(=O)[nH]2)cc1	18	i
15	COc1cc(NC(=O)c2onc(C)c2Cl)c(OC)cc1Cl	-1.2	.
16	CCN1C(=O)N(CC)C2C1N(C(C)=O)C(=O)N2C(C)=O (stereo not given)	0.3	i
17	CCOC(=O)c1c(NC(=O)OC)sc2c1CCC2	2.5	i
18	O=C(C1CCCN1S(=O)(=O)c1cccc2cccnc12)N1CCn2c1nc1ccccc12 (stereo not given)	0.1	i
19	COc1ccccc1-c1cc(C(F)(F)F)nc(N2CCN(c3ccccc3)CC2)n1	-2.2	.
20	O=C(CCN1CCCCC1)Nn1c(=S)[nH]c2ccccc2c1=O	-2.4	.
21	CCOc1ccccc1N(CC)C(=O)Cn1ncc2c(=O)oc3ccccc3c21	-2.0	.
22	COC(=O)c1cc(Br)ccc1-c1ccc(/C=N/n2nnnc2N)o1	0.8	i
23	CCn1cc(C(=O)NCc2ccco2)c(=O)c2cc(S(=O)(=O)N3CCc4ccccc4C3)ccc21	3.2	.
24	CC(=O)Nc1ccc2nc(C3CCCCC3)[nH]c2c1	0.5	.
25	COc1ccc2nc(N3CCCC(C(=O)NCCCN4CCN(C)CC4)C3)sc2c1 (stereo not given)	-0.1	.
26	O=C(Nc1ccccc1C(F)(F)F)c1cc(-c2ccccc2O)on1	-0.2	.
27	Cc1nnc(SCC(=O)Nc2ccc(Oc3ccccc3)cc2)n1N	0.1	.
28	COc1ccc(OC)c(C(C)NC=O)c1 (stereo not given)	0.9	i
29	COc1cc(C2NC(=O)NC(O)(C(F)(F)F)C2C(C)=O)cc(OC)c1OC (stereo not given)	-3.9	.
30	Cc1nc2ncnn2c(N2CCC(C(=O)NC3CCCC3)CC2)c1Cc1ccccc1	-2.7	i
31	CCOC(=O)CSc1nnc(Cn2nnc(-c3ccccc3)n2)n1CC	-3.5	i
32	Cn1nc(C(=O)N2CCOCC2)c2ccccc2c1=O	1.1	i
33	COC(=O)c1cc(=O)n(Cc2ccc3c(c2)OCO3)c(=Nc2ccccc2)s1	-2.4	i
34	COCCN1Cc2cccc(C(=O)Nc3cccc(C)c3C)c2C1=O	0.3	.
35	CCN(c1ccccc1)c1cc(C)nc2ncnn12	0.6	.
36	Cc1csc2nc(CNC(=O)c3cccc(C(F)(F)F)c3)cn12	0.2	.
37	CC(C)NC(=O)C1CCN(C(=O)c2cc3sccc3n2Cc2ccc(F)cc2)CC1	0.6	.
38	O=C1NCC(COCc2ccccc2)O1 (stereo not given)	0.0	i
39	CC(=O)c1ccc(N2CCN(C(=O)C3(S(=O)(=O)c4ccc(Cl)cc4)CC3)CC2)cc1	-0.1	.
40	CCN(CC)CCCC1(CN)OCCc2ccccc21 (stereo not given)	-0.6	i
41	CCN(CCNS(=O)(=O)c1ccc2c(c1)oc(=O)n2C)c1ccccc1	-0.2	.
42	O=C1N[C@@H](Cc2cnc[nH]2)C(=O)N2CCC[C@@H]12	0.3	i
43	COc1cccc(-c2cc(C(=O)N3CCCc4ccccc43)no2)c1	-0.7	i
44	CCn1cc(C(=O)N2CCN(C3CCCCC3)CC2)c2cc(OC)c(OC)cc2c1=O	-1.2	.
45	CCOC(=O)c1c(NC(=O)CSc2nnc(CNC(=O)c3ccco3)n2C)sc2c1CCC2	0.2	.
46	Cc1ccc(-c2csc(N3CCC(C(N)=O)(N4CCCCC4)CC3)n2)cc1	-2.0	.
47	COC(=O)c1ccc(CS(=O)(=O)c2ccccc2C)o1	-1.8	.
48	CCOC(=O)CNC(=O)C(NC(=O)C1CCC(C)CC1)C(C)CC (stereo not given)	1.4	.
49	COc1ccccc1-c1cc(C(F)(F)F)nc(S(=O)(=O)CCCC(=O)Nc2cc(C)on2)n1	0.4	.
50	COc1ccc(OC)c2[nH]c(=O)c(CCNC(=O)COc3ccccc3)cc12	-0.1	.
51	CCCCN1CC(C(=O)NC2CCCCC2)CC1=O (stereo not given)	0.6	.
52	Cc1c(NS(=O)(=O)c2ccc3c(c2)n(C)c(=O)n3C)c(=O)n(-c2ccccc2)n1C	0.6	i
53	CCS(=O)(=O)N1CCCC(C(=O)NCc2ccccc2Cl)C1 (stereo not given)	0.3	i
54	CCOC(=O)NC(NC(=O)OCC)C(=O)c1ccccc1	0.3	.
55	CN(C)c1ccc(C2N(c3cccc(Cl)c3)C(=O)C3CCCN32)cc1 (stereo not given)	1.7	.
56	COc1ccc(-c2cc(C(=O)N3CC4(C)CC3CC(C)(C)C4)no2)cc1 (stereo not given)	0.5	.
57	CCOC(=O)c1cccc(NC(=O)CSc2nnc(-c3cccnc3)n2CC)c1	0.8	i
58	CCOc1ccc(NC(=O)CN2C(=O)COc3ccc(Cl)cc32)cc1	0.0	.
59	COc1ccc2nc3oc(C(=O)N4CCC(C(N)=O)CC4)cc3cc2c1	0.2	.
60	Cc1c(Br)c(=O)[nH]c(=O)n1COCc1ccccc1	-0.2	.

Other compounds.
no.	SMILES	Proteasome disasm	VCAM-1 rise
61	COC(=O)c1[nH]c2cccc(C)c2c1NC(=O)CN1CCCc2ccccc21	10	i
62	Nc1ccc(S(=O)(=O)c2cccc(N)c2)cc1	2.4	i
63	CC(C)CNc1nc(Oc2ccc(=O)n(C)n2)nc(N2CCOCC2)n1	2.2	.
64	Cc1ccc(-n2nnnc2SCC(=O)c2cc(C)n(-c3cc(C)on3)c2C)cc1	4.2	i
65	Cn1c(=O)cc(OCCCC(=O)N2CCN(Cc3ccc4c(c3)OCO4)CC2)c2ccccc21	-0.2	.
66	CCOC(=O)N1CCN(S(=O)(=O)c2ccc(OCC)c(C)c2)CC1	1.0	i
67	COc1ccccc1-c1cc(N)n(S(=O)(=O)c2ccc(F)c(C)c2)n1	-0.4	.
68	COC(=O)CN1C(=O)CSc2ncccc21	-0.9	.
69	O=S(=O)(c1ccccc1)N(Cc1nc(-c2ccccc2)no1)C1CCCCC1	-2.5	i
70	CCOc1ccccc1-n1c(SCC(=O)NCc2ccco2)nnc1-c1ccncc1	3.6	i
71	Cc1cc(C)n2nc(SCc3nc4ccccc4[nH]3)nc2n1	0.8	i
72	O=C(O)CCCC(=O)NCCc1ccncc1	2.5	i
73	CC1Cc2ccccc2N1C(=O)CSCC(=O)O (stereo not given)	0.6	.
74	COc1ccc(-n2c(Cc3cccn3C)nnc2SCC(=O)N2CCOCC2)cc1	0.1	.
75	CC(=O)N1CCN(c2ccc(NCc3ccc(F)cc3)cc2)CC1	0.2	.

Ordered by number of heavy atoms (ascending): part of the list above
no.	SMILES	Proteasome disasm	VCAM-1 rise
66	CCOC(=O)N1CCN(S(=O)(=O)c2ccc(OCC)c(C)c2)CC1	1.0	i
69	O=S(=O)(c1ccccc1)N(Cc1nc(-c2ccccc2)no1)C1CCCCC1	-2.5	i
65	Cn1c(=O)cc(OCCCC(=O)N2CCN(Cc3ccc4c(c3)OCO4)CC2)c2ccccc21	-0.2	.

Continuation:
no.	SMILES	Proteasome disasm	VCAM-1 rise
76	CC1CCCCC1NC(=O)c1nnc(Cc2ccc(Cl)cc2)o1 (stereo not given)	0.0	.
77	CCn1c2ccccc2c2cc(NC(=O)Cc3ccc(S(=O)(=O)N4CCOCC4)s3)ccc21	0.0	i
78	Cn1c(=O)cc(SCC(=O)NCC2CCCO2)c2ccccc21 (stereo not given)	-1.7	.
79	Cc1csc2ncc(C(=O)N3CCc4ccccc43)c(=O)n12	-1.2	i
80	CCOC(=O)c1cc2c(=O)n3ccccc3nc2n(Cc2ccccc2)c1=N	2.5	i
81	CCOC(=O)N1CCC(NC(=O)c2ccc3snnc3c2)CC1	0.1	.
82	CCCCn1c(-c2nonc2NC(=O)c2ccccc2Cl)nc2ccccc21	14	.
83	CCN(Cc1ccccc1)S(=O)(=O)c1ccc(S(=O)(=O)N2CCN(CCC#N)CC2)cc1	0.6	.
84	O=C(c1ccc(CNS(=O)(=O)c2cccc(C(F)(F)F)c2)cc1)N1CCOCC1	-6.3	i
85	O=C(CCS(=O)(=O)c1cc(Br)cc2c1N(C(=O)C1CC1)CC2)NCC1CCCO1 (stereo not given)	-2.4	i
86	NC(=O)c1cc(-c2ccccc2)nc(Oc2ccccc2)n1	4.4	i
87	O=C(CSc1nc(-c2ccc(F)cc2)cs1)N1CCOCC1	-0.6	i
88	COc1ccc(OC)c(NC(=O)[C@H]2CC=CC[C@H]2C(=O)O)c1	0.8	.
89	CCCCC(CC)CNC(=O)CN(C)S(=O)(=O)c1cccc2nsnc12 (stereo not given)	0.2	.
90	COc1ccc(N2CCN(C(CNC(=O)c3cccc(Cl)c3)c3cccnc3)CC2)cc1 (stereo not given)	4.5	.
91	CCCCn1c(CN2CCN(c3cccc(Cl)c3)CC2)nc2c1c(=O)n(C)c(=O)n2C	1.9	i
92	NC(=O)c1ccccc1NC(=O)CCCN1C(=O)CCC1=O	-1.7	i
93	Cc1cc(Nc2ccccc2)n(-c2ccccc2)n1	1.2	i
94	CCN(CC)C(=O)Cn1c(=O)n(Cc2ccccc2Cl)c2c1c(=O)n(C)c(=O)n2C	-2.3	i
95	Cc1cc(C)n2nc(CC(=O)NC3CCCCCCC3)nc2n1	-1.3	.
96	NC(=O)c1nsnc1-c1ccccc1O	-0.2	i
97	CC(C)OC(=O)c1cccnc1SCc1cc(=O)n2ccccc2n1	0.5	.
98	Cc1cc(NC(=O)C2CCN(S(=O)(=O)c3cnc[nH]3)CC2)ccc1Br	0.2	.
99	CCn1cc(-c2cc(C(F)(F)F)n3nc(C(=O)O)cc3n2)c(C)n1	-0.7	.
100	COC(=O)c1ccccc1NC(=O)CSc1nnnn1C1CCCCC1	1.3	i
101	CN1CCN(C(CNS(=O)(=O)c2ccc(Cl)cc2)c2cccnc2)CC1 (stereo not given)	2.8	.
102	CCOC(=O)c1cccnc1SC(CC)C(=O)N1CCOCC1 (stereo not given)	0.0	.
103	Cc1cc(N2CCN(C)CC2)nc2ccc(NC(=O)c3ccc4c(c3)OCO4)cc12	-2.0	.
104	Cc1cnnc2c1-c1nonc1CC2	-2.1	i
105	COc1cccc(-c2csc(N3CCN(CC(=O)Nc4ccc5c(c4)OCO5)CC3)n2)c1	-1.3	i
106	Cc1ccc(N(CC(O)CN2CCCC2)S(=O)(=O)c2ccc(C)cc2)cc1 (stereo not given)	0.0	i
107	COc1ccc(NC(=O)Nc2cccc(C)n2)cc1	0.2	.
108	CCS(=O)(=O)c1nc2ccccc2n1CC(=O)N1CCCCC1	-1.2	i
109	O=C(Nc1cccc(-c2cn3cccnc3n2)c1)c1ccc(Br)o1	3.0	.
110	O=c1[nH]c2ccc(S(=O)(=O)N3CCN(C4CCCCC4)CC3)cc2[nH]c1=O	0.8	i
111	Cc1cccc(N2C(=O)CC(N3CCN(c4cccc(C(F)(F)F)c4)CC3)C2=O)c1 (stereo not given)	-0.8	i
112	CCNC(=O)CC1C(=O)N(c2ccc(F)cc2)C(=O)N1CCc1ccc(OC)cc1 (stereo not given)	1.6	.
113	O=C(CSc1nnc(Cc2cccs2)n1Cc1ccco1)Nc1cccc(Cl)c1	-1.0	i
114	CCc1ccc(NS(=O)(=O)c2ccc3[nH]cc(C(=O)N4CCCCC4)c(=O)c3c2)cc1	-0.1	i
115	CCc1nnc(NC(=O)C2CC(=O)N(Cc3ccco3)C2)s1 (stereo not given)	2.4	i
116	CCOc1cccc2cc(-c3csc(NC(=O)CCC(=O)N4CCN(C)CC4)n3)c(=O)oc12	-1.2	.
117	CC(=O)c1ccc(OCC(O)CN2CC(C)OC(C)C2)cc1 (stereo not given)	-1.1	.
118	C#CCN1C(=O)C(O)(CC(=O)c2ccc3c(c2)OCCO3)c2ccccc21 (stereo not given)	0.3	.
119	CC(C)n1c(SCc2ccccc2F)nc2c1c(=O)n(C)c(=O)n2C	2.6	.
120	COC(=O)c1sc(N)c(C(=O)OC)c1CSc1nc2sc3c(c2c(=O)n1C)CCC3	-0.6	i

High-throughput results (PubChem)

This is a subset; rates above refer to the full screens.
